# Source: PubChem BioAssay
# NS1 inh = influenza NS1 inhibition. S. cerevisiae slowed by influenza A NS1, growth recovery by OD600. Potency, µM (top dose mostly 46.1 µM), inactives show top-dose activity, positive = more growth. hit rate 0.4% among 270,000; active means well fitted rising curve with a large enough effect; inconclusive means small, poorly fitted or top-dose-only effect; inactive means no such curve, though single readings can be large or run the other way; also: nearly all actives have a fitted effect of over 50% in size
#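 A cell-based growth assay was used: compounds that relieve NS1-induced slow growth of budding yeast raise OD600. Assay medium was yeast nitrogen base with ammonium sulphate and -URA supplement, pH 6.0, with 2% galactose.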
# Lassa entry inh = blocks Lassa virus binding to or entry into cells; hit rate 1.2% among 300,000; Lassa virus pseudotype entry inhibition, cell reporter; control for the full effect not named in the record; Potency, µM (series often up to 37.9 µM), without a hit: top-dose activity change, negative = inhibition, usual class: inhibitors; active means well fitted inhibition curve with a large enough effect; inconclusive means small, poorly fitted or top-dose-only effect, or effect the other way; inactive means flat fitted curve, though single readings scatter; tested in HEK293 cells; also: % is scaled to controls: 0 for no effect and ±100 for the full control effect; nearly all actives have a fitted effect of over 50% in size; luciferase read-out
# Marburg entry inh = blocks Marburg virus binding to or entry into cells; Marburg virus pseudotyped entry inhibition, cell reporter; control for the full effect not named in the record; about a third of the inactives were read at about 46 µM; Potency, µM (series often up to 37.8 µM), for the others: top-dose activity change, negative = inhibition, most hits filed as inhibitors; hit rate 1.8% among 300,000; active = well fitted inhibition curve with a large enough effect; inconclusive = small, poorly fitted or top-dose-only effect, or effect the other way; inactive = flat fitted curve, though single readings scatter; tested in HEK293 cells; about a fifth of its hits are not listed in these tables; also: % is scaled to controls: 0 for no effect and ±100 for the full control effect; luciferase read-out
# RE007 growth inh = less growth of the S. pombe RE007 Vpr strain; hit rate 0.21% among 360,000; S. pombe RE007 Vpr strain, BacTiter-Glo ATP luminescence, 24 h; control for the full effect not named in the record; AID 651644; Potency, µM (doses to about 92.2 µM), without a hit: at the top dose activity change, negative = less growth; active = well fitted falling curve with a large enough effect; inconclusive = small, poorly fitted or top-dose-only effect; inactive = no such curve, though single readings can be large or run the other way;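 also: % is scaled to controls: 0 for no effect and ±100 for the full control effect; nearly all actives have a fitted effect of over 50% in size; the assay follows cell death caused by Vpr and the record does not say whether a fall means rescue or toxicity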
#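 Fission yeast RE007 carrying one integrated HIV-1 vpr copy, seeded at OD 0.01 in PMG+AL medium with 23 nL pinned compound. Grown 24 h at 30 degrees; viability read by BacTiter-Glo luminescence after 5 min.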
# Cruzain noTriton = blocks cruzain activity in detergent-free assay | hit rate 2.3% among 200,000 | purified cruzain, Z-FR-AMC fluorescence, no detergent | Potency, µM, for the others: max response, negative = inhibition, actives largely listed as inhibitors | P25779;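 also: plate controls were enzyme without inhibitor for no effect and buffer without enzyme for full effect; nearly all actives have a fitted effect of over 40% in size; top concentration of the series not given in the record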
# Target sequence (P25779 123-467 limits assumed): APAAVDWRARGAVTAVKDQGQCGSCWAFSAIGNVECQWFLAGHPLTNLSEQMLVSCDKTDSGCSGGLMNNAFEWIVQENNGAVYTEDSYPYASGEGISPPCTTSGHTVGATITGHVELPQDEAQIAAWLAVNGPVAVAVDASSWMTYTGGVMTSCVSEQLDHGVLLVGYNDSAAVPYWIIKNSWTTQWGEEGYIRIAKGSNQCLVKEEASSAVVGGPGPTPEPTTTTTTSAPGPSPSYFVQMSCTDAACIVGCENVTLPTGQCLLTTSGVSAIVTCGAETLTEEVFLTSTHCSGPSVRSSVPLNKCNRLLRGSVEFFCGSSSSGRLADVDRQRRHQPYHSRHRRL
#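 Detergent-free condition (0.00005% Triton X-100) in acetate buffer pH 5.5 with DTT. 1.5 nM enzyme and compound were pre-mixed 15 min, then 2 uM Z-FR-AMC substrate added; reaction progress from fluorescence change between first and third reads (60 s).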
# SARS PLpro yeast = inhibitors of SARS-CoV papain-like protease in yeast; S. cerevisiae expressing SARS-CoV PLpro, growth rescue; control for the full effect not named in the record; Potency, µM (top dose mostly 32.9 µM), inactives show at the highest dose activity, positive = growth rescue; hit rate 0.19% among 330,000; AID 485353; active means well fitted rising curve with a large enough effect; inconclusive means small, poorly fitted or top-dose-only effect; inactive means no such curve, though single readings can be large or run the other way; also: 0% is about no effect; nearly all actives have a fitted effect of over 55% in size; growth read by luminescence after 48 h
# 2A StopGo = lowers the luciferase signal of an FMDV 2A StopGo reporter | human cells with a luciferase reporter of 2A StopGo recoding; control for the full effect not named in the record | Potency, µM (titrated, usually from 57.9 µM), for the others: top-dose signal change, negative = less light | hit rate 1.2% among 410,000 | AID 1159524; active = well fitted falling curve with a large enough effect; inconclusive = small, poorly fitted or top-dose-only effect; inactive = no such curve, though single readings can be large or run the other way; tested in HEK293T cells; also: % is scaled to controls: 0 for no effect and ±100 for the full control effect; nearly all actives have a fitted effect of over 45% in size; luciferase light after 4 h
# Cruzain inh Det = blocks cruzain activity in presence of Triton detergent; P25779; purified cruzain, Z-FR-AMC fluorescence, 0.01% Triton; Potency, µM, for inactives: max response, negative = inhibition, usual class: inhibitors; hit rate 0.43% among 200,000; AID 1478;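 also: plate controls were neutral wells for no effect and buffer without enzyme for full effect; nearly all actives have a fitted effect of over 40% in size; top concentration of the series not given in the record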
#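 Z-FR-AMC hydrolysis (2 uM substrate) by cruzain (1.5 nM) monitored kinetically at ex 360/em 450 nm after 15 min room-temperature compound exposure; 0.01% Triton X-100, pH 5.5, 5 mM DTT.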
# Starred values were filed as active, the others as inactive; ? = inconclusive; nt = not tested or not shown; & = joins results of further samples; [ ] = remark or other dose. Unless noted, calls follow the shape of the dose curve; as a rule, active = well fitted curve in the direction sought with a large enough effect; inconclusive = small, poorly fitted or top-dose-only effect, or another doubt; inactive = no such curve, though single readings can be large; an effect the other way counts as inactive or inconclusive. Potency is read from the fitted curve at half-maximal effect. Not a hit list, and some 4.8% of all compounds hit somewhere here.
SMILES,NS1 inh,Lassa entry inh,Marburg entry inh,RE007 growth inh,Cruzain noTriton,SARS PLpro yeast,2A StopGo,Cruzain inh Det
CC1CCc2c(sc(N)c2C(N)=O)C1 (stereo not drawn),5%,-4%,-15%,4%,?,-3%,12%,-5.2%
COc1ccc(S(=O)(=O)N(CC(=O)Nc2ccc(S(=O)(=O)N3CCOCC3)cc2)Cc2ccc(F)cc2)cc1,16%,?,-34%,-19%,13%,19%,0%,-1.5%
COC(=O)[C@@H](N)CS,-31%,2%,-19%&-19%,-10%[18.4 µM],2%,-2%,-16%,0.8%
O=C(Nc1sc2c(c1C(=O)O)CCCCC2)c1cccnc1,7%,nt,nt,9%,nt,3%,57%[activator],nt
O=C(Nc1ccc(F)cc1)Oc1ccccc1N1CCOCC1,2%,20%,-12%[14.2 µM],-5%,nt,-1%,14%,nt
CCC(C)(C)NC(=O)C(c1ccc(C)cc1)N(CC1CCCO1)C(=O)c1csnn1 (stereo not drawn),8%,-12%[46.1 µM],-7%[46.1 µM],0%,nt,-11%,-3%,nt
CC(CCc1ccccc1)NC(=O)C(Cc1ccccc1)NS(=O)(=O)c1cccs1 (stereo not drawn),-3%,2%,?,8%,4%,8%,nt,-3.7%
COC(=O)CS(=O)(=O)c1ccc2c(c1)CC(=O)N2,2%,12%,-2%[46.1 µM],9%,1%,0%,-12%,-3.8%
O=c1c2ccccc2[nH]c(=S)n1Cc1ccccc1Cl,-1%,-9%[46.1 µM],10%[46.1 µM],11%,nt,-1%,-4%,nt
Cc1cc(Oc2ccccc2)nc(NCc2ccccc2)n1,-16%,15%,?,4%,2%,4%,-11%,-1.9%
COc1ccc(S(=O)(=O)NCc2ccccn2)cc1NC(=O)c1ccccc1,-2%,?,?,9%,nt,-4%,33%[activator],nt
CNC(=O)CC(C(=O)O)c1ccc(OC(C)C)cc1 (stereo not drawn),4%,3%,-7%,12%,-8%,3%,9%,4.0%
COc1cc(C(=O)n2nc(C)cc2C)ccc1O,-2%,2%,1%[46.1 µM],-1%,0%,13%,-12%,2.8%
O=C(Nc1ccc2nn(-c3ccccc3)nc2c1)c1cccs1,-48%,9%,20%,7%,?,-2%,nt,-7.8%
O=S1(=O)CCN2C(c3cccc4ccccc34)=CSC2=N1,nt,5%,12%[46.1 µM],43%,nt,-1%,-16%,nt

# Reformatted: entries from further up.
# The line under a structure holds: NS1 inh | Lassa entry inh | Marburg entry inh | RE007 growth inh | Cruzain noTriton | SARS PLpro yeast | 2A StopGo | Cruzain inh Det
- COC(=O)CS(=O)(=O)c1ccc2c(c1)CC(=O)N2
 : 2% | 12% | -2%[46.1 µM] | 9% | 1% | 0% | -12% | -3.8%
- COc1ccc(S(=O)(=O)NCc2ccccn2)cc1NC(=O)c1ccccc1
 : -2% | ? | ? | 9% | nt | -4% | 33%[activator] | nt
- O=C(Nc1ccc(F)cc1)Oc1ccccc1N1CCOCC1
 : 2% | 20% | -12%[14.2 µM] | -5% | nt | -1% | 14% | nt
- CCC(C)(C)NC(=O)C(c1ccc(C)cc1)N(CC1CCCO1)C(=O)c1csnn1 (stereo not drawn)
 : 8% | -12%[46.1 µM] | -7%[46.1 µM] | 0% | nt | -11% | -3% | nt
- O=S1(=O)CCN2C(c3cccc4ccccc34)=CSC2=N1
 : nt | 5% | 12%[46.1 µM] | 43% | nt | -1% | -16% | nt
- O=c1c2ccccc2[nH]c(=S)n1Cc1ccccc1Cl
 : -1% | -9%[46.1 µM] | 10%[46.1 µM] | 11% | nt | -1% | -4% | nt

# Additional results:
SMILES,NS1 inh,Lassa entry inh,Marburg entry inh,RE007 growth inh,Cruzain noTriton,SARS PLpro yeast,2A StopGo,Cruzain inh Det
C/C(N)=C(/C#N)C(=O)COC(=O)c1cccc2ccccc12,6%,-4%,9%,-12%,5%,?,42%[activator],-7.9%
COc1ccccc1NC(=O)c1ccc2c(O)c(S(=O)(=O)c3ccccc3)c(=O)[nH]c2c1,12%,nt,nt,-16%,nt,-4%,-7%,nt
COc1ccc(NC(=O)CSc2nncn2C)c([N+](=O)[O-])c1,4%,22%,15%,9%,5%,14%,4%,2.1%
COc1ccccc1NC(=O)c1cc(S(=O)(=O)N2CCC3(CC2)OCCO3)ccc1F,-43%,-9%,-2%&-4%,-1%,?,-1%,-18%,2.6%
Cc1ccc(Cl)cc1N1CCN(C(=O)CSc2cc(=O)n(C)c3ccccc23)CC1,nt,?,?,nt,8%,nt,?,-6.9%
O=C1N/C(=C\c2ccc(O)cc2)C(=O)c2ccccc21,10%,?,?,-27%,16%,-39%,?,-2.2%
O=C(Cn1nnc(-c2cccs2)n1)NCCc1ccccc1,8%,-15%,?,0%,?,-3%,43%[activator],-1.4%
CCOC(=O)c1ccc(N2CCOCC2)c(NC(=O)c2ccc3c(c2)OCO3)c1,-32%,0%,-8%,-7%,nt,-3%,-13%,nt
O=C(NCc1ccco1)NC(=O)c1csc([N+](=O)[O-])c1,2%,10%,13%,5%,nt,3%,20%,nt
O=S1(=O)N=C2CCCCCN2C(c2ccncc2)N1 (stereo not drawn),-2%,29%,0%,4%,-8%,11%,-7%,3.0%
CCOc1cc(C2C(C#N)=C(N)OC(C)=C2C(C)=O)c(Br)c(Br)c1OC(C)C (stereo not drawn),-2%,?,-38%,13%,3%,-17%,-6%,-16%
CCCN1CCN(C(=O)C2CCN(S(=O)(=O)c3ccc4c(c3)NC(=O)C(C)S4)CC2)CC1 (stereo not drawn),7%,nt,nt,0%,nt,?,-19%,nt
CCCCOC(=O)c1sc2nc(C)cc(C)c2c1N,-60%,?,?,-9%,nt,-5%,53%[activator],nt
COc1cccc(-n2c(/C=C/c3ccccc3O)nc3ccccc3c2=O)c1,nt,?,nt,nt,20µM*,nt,0%,-8.4%
Cc1nnc(SCc2c(Cl)cccc2Cl)n(N)c1=O,nt,1%[46.1 µM],0%[46.1 µM],8%,nt,-5%,-15%,nt
Cc1ccc(NC(=O)c2oc3ccc(S(=O)(=O)N4CCCCC4)cc3c2C)c(C)c1,nt,6%[46.1 µM],nt,nt,15%,nt,?,5.2%
N/C(=N\OC(=O)c1ccc(Cl)cc1Cl)c1cccnc1,-7%,nt,nt,-2%,nt,-1%,36%[activator],nt
CC(=O)c1cccc(NC(=O)CC2CCCC2)c1,-8%,-7%[46.1 µM],-2%[46.1 µM],1%,nt,-2%,56%[activator],nt
COc1ccc(N2CCN(C(=O)C3CCN(C(=O)c4ccccc4Cl)CC3)CC2)cc1,-18%,-6%[46.1 µM],18%[46.1 µM],-9%,nt,-1%,-4%,nt
COc1cc2c(-c3cc(Br)ccc3O)nc3c(c(C)nn3-c3ccccc3)c2cc1OC,nt,5%[46.1 µM],nt,nt,17%,nt,-18%,-0.8%
O=C(Nc1nc(-c2ccccc2)cs1)c1ccccc1NS(=O)(=O)c1ccc(F)cc1,6%,3.7µM*,?,-8%,?,-80%,?,?
C/C(=N\Nc1ccc2nncn2n1)c1ccc(Br)s1,-2%,11%[46.1 µM],-23%[46.1 µM],-16%,nt,-1%,-3%,nt
O=C(Nc1ccncc1)c1c(F)c(F)c(F)c(F)c1F,-13%,1%,-1%,8%,nt,-9%,?,nt
CCc1nc2ccc(C(=O)N3CCN(c4cc(C)ccc4C)CC3)cc2nc1CC,8%,8%[46.1 µM],nt,24%,?,nt,-25%&7%,-1.7%
CCn1c(SCC(=O)c2[nH]c(C)c(C(C)=O)c2C)nnc1-c1ccccc1,1%,-15%,?,7%,7%,-2%,25µM*,-0.2%
CC(=O)N(CCC1(c2ccc(C)cc2)CCOC(C(C)C)C1)Cc1ccco1 (stereo not drawn),0%,?,?,14%,nt,-2%,0%,nt
Cc1ccc(Cl)cc1N1CCN(C(=O)C2CCN(Cc3nc(-c4cccc(Cl)c4)oc3C)CC2)CC1,nt,34%[46.1 µM],?,nt,-9%,nt,-10%,-1.2%
COc1ccc(C(=O)NCC(=O)NCC(=O)OCC(=O)c2ccc(Br)cc2)cc1,17%,3%,-14%,-25%,nt,-4%,-13%,nt
COC(=O)c1ccc(S(=O)(=O)N2CCC(c3nc4ccccc4o3)CC2)cc1,4%,0%,7%,12%,-3%,-4%,nt,2.6%
CCOc1ccc2nc(SC3CC(=O)N(c4ccc(OC)cc4)C3=O)sc2c1 (stereo not drawn),-22%,0%,-10%,-20%,-3%,-7%,1%,-0.3%
N#CC(C(=O)CCN1C(=O)C2CC=CCC2C1=O)c1nc2ccccc2[nH]1 (stereo not drawn),0%,12%,1%,27%,-3%,-4%,10%,-3.5%
O=C(C1CCN(S(=O)(=O)Cc2ccccc2)CC1)N1CCN(c2ccccc2)CC1,nt,-24%[46.1 µM],?,nt,9%,nt,-29%,-8.4%
Cc1sc2c(c1C)CN(CCN1CCOCC1)CN2C(=O)c1ccccc1,nt,11%[46.1 µM],27%[46.1 µM],-14%,nt,0%,22%,nt
Fc1ccc(CNC(=S)NC2CCCCCC2)cc1,-8%,-12%,?,3%,nt,-3%,30%,nt
